Screening data (PubChem)
VACV mCherry inh: inhibitors of vaccinia virus infection (mCherry reporter signal); Vaccinia virus mCherry reporter infection, fluorescence; about a quarter of the inactives have no number; Potency, µM (doses to about 36.5 µM), inactives show top-dose activity change, negative = inhibition, most hits filed as inhibitors; hit rate 0.63% among 310,000; AID 720579; active = well fitted inhibition curve with a large enough effect; inconclusive = small, poorly fitted or top-dose-only effect; inactive = no such curve, though single readings can be large or run the other way; tested in A549 cells; further: nearly all actives have a fitted effect of over 35% in size; inactives centre near -10
Vaccinia Venus: inhibitors of vaccinia virus (Venus reporter); Vaccinia virus Venus reporter expression, fluorescence; hit rate 0.46% among 330,000; Potency, µM (top dose mostly 36.5 µM), for inactives: at the top dose activity change, negative = inhibition, usual class: inhibitors; active means well fitted inhibition curve with a large enough effect; inconclusive means small, poorly fitted or top-dose-only effect; inactive means no such curve, though single readings can be large or run the other way; tested in A549 cells; further: nearly all actives have a fitted effect of over 30% in size; inactives centre near -10
An asterisk follows results filed as active; i = inactive; ? = inconclusive; · = no result given; & = joins results of further samples; [ ] = remark or other dose. On the % scale 0 is the no-effect control and ±100 the full control effect; potency means the concentration at half of the fitted maximal effect. An unsorted share of the library; any-hit rate near 0.86%.

Order of values – VACV mCherry inh	Vaccinia Venus
[1] COc1cc(CNCCCSc2nnnn2C)cc(Br)c1OC
  -13%	-7%
[2] CCOc1ccc(-n2cc(C(=O)NCc3ccco3)c3cc(OC)c(OC)cc3c2=O)cc1
  -19%	-29%
[3] O=S1(=O)CCOC[C@H](CC2CCCCC2)N1Cc1ccccc1Br
  0%&-3%	-10%&-9%
[4] CCc1nc2ccc(C(=O)Nc3cc(-c4ccccc4)ccc3OC)cn2c1N(C)CCCc1ccccc1
  0%	-4%
[5] O=C(CN1CCN(C/C=C/c2ccccc2)CC1)NC(=O)NC1CCCCC1
  -18%	-12%
[6] Cc1ccc(C)c(Nc2nc3nonc3nc2N2CCOCC2)c1
  -11%	-1%
[7] CCCn1cnc2cc(NCc3ccccc3OCC)ccc21
  -1%[7.34 µM]	-5%[7.34 µM]
[8] COc1ccccc1N1CCN(C(=O)COc2cccc(C)c2C)CC1
  -15%	-9%
[9] COc1ccc(-c2noc(CSc3nc4ccccc4c(=O)n3-c3ccc(C)cc3)n2)cc1
  i	-4%
[10] COc1ccccc1OCCCC(=O)NC(C)c1ccccc1 (stereo not drawn)
  -3%	-7%

Complete entries as entered above.
`CCc1nc2ccc(C(=O)Nc3cc(-c4ccccc4)ccc3OC)cn2c1N(C)CCCc1ccccc1` is listed as VACV mCherry inh = 0%; Vaccinia Venus = -4%
`O=C(CN1CCN(C/C=C/c2ccccc2)CC1)NC(=O)NC1CCCCC1` is listed as VACV mCherry inh = -18%; Vaccinia Venus = -12%
`COc1ccccc1N1CCN(C(=O)COc2cccc(C)c2C)CC1` is listed as VACV mCherry inh = -15%; Vaccinia Venus = -9%

The list goes on.
Order of values – VACV mCherry inh	Vaccinia Venus
[11] COc1cccc(-c2ccnc3c(-c4ccccc4)c(C)nn23)c1
  -10%	-10%
[12] Cc1onc(-c2ccccc2Cl)c1C(=O)N1CCN(C(=O)c2ccco2)CC1
  -4%	-19%
[13] CCOCCCNC(=O)C(NC(=O)c1ccccc1O)c1ccccc1 (stereo not drawn)
  i	-4%
[14] O=C(CSc1nnc(COc2ccccc2)o1)N1CCCC1
  -2%	1%
[15] O=C(NC1CCCCC1)c1cc(-c2ccccn2)nc2ccccc12
  2%	1%
[16] O=C(CSc1nc2cc([N+](=O)[O-])ccc2n1-c1ccccc1)NCc1ccc2c(c1)OCO2
  i	-4%
[17] COc1ccc(CN(C(=O)CNC(=O)c2ccco2)C(C(=O)NCC2CCCO2)c2ccccc2)cc1 (stereo not drawn)
  -12%	-19%
[18] O=C(NCCN1CCOCC1)c1cc(-c2ccc(Cl)cc2Cl)on1
  -3%	-5%
[19] CC(C)c1ccc(C(=O)Nc2cccc3cccnc23)cc1
  2%	11%
[20] O=C(Nc1nnc([C@H]2C[C@H](O)[C@@H](CO)O2)s1)Nc1ccccc1F
  i	7%
[21] CC1CN(CC(O)COc2ccc(C#N)cc2)CCN1CC(O)COc1ccc(C#N)cc1 (stereo not drawn)
  0%	0%
[22] O=C(CCS(=O)(=O)c1ccc(F)cc1)Nc1nnc(-c2ccco2)o1
  ?	?
[23] Cc1ccc(-n2c(=O)c3ccc(C(=O)NCc4ccco4)cc3n(Cc3cccc(Cl)c3)c2=O)cc1
  -18%	-9%
[24] CSc1ccc(S(=O)(=O)N2CCC(C(=O)N3CCc4ccccc4C3)CC2)cc1
  -9%	-10%
[25] CC1CC(=O)Nc2ccccc2N1C(=O)CN1C(=O)C(=O)N(C)C1=O (stereo not drawn)
  i	5%
[26] O=C(CSc1ncn[nH]1)Nc1nc2c(F)c(F)c(F)cc2s1
  i	-12%
[27] COc1cc(OC)cc(-c2nn[nH]n2)c1
  -6%	-10%
[28] COc1ccc(-c2ccc(SCC(=O)NC3CCCCC3)nn2)cc1
  -13%	-13%
[29] C/C(Cc1ccccc1)=N\NC(=O)CNC(=O)/C=C\c1ccccc1
  i	-1%
[30] Cn1c(N)c(C(=O)/C=C/c2ccccc2)c(=O)[nH]c1=O
  i	-3%
[31] Cc1ccc(CSc2nnc3[nH]c(=O)cc(C)n23)cc1
  i	-8%
[32] Nc1c(C(=O)Nc2cccc(F)c2)nnn1-c1ccc2c(c1)OCCO2
  -17%	-13%
[33] CCC(=O)N(C)C[C@@H]1Oc2ncc(Br)cc2C(=O)N([C@H](C)CO)C[C@H]1C
  -9%	-8%
[34] Cn1cc(P(=O)(N2CCOCC2)N2CCOCC2)cc1P(=S)(N1CCOCC1)N1CCOCC1
  i	1%
[35] COc1ccc(CCCc2nnc(SCC(=O)Nc3cccc(C)c3)o2)cc1
  -10%&-1%	-11%&-8%
[36] CCOc1cc2c(cc1OCC)-n1cccc1C(c1ccc(OC)c(O)c1)NC2 (stereo not drawn)
  ?	-17%
[37] C=CC[C@@H](CC(=O)N[C@H](CO)Cc1ccccc1)C(=O)N[C@H](COC(=O)[C@H](CC=C)CC(=O)OC(C)(C)C)Cc1c[nH]c2ccccc12
  -18%	?
[38] CCC(C)NC(=O)CCn1c(-c2ccccc2)cc(C(C)=O)c1C (stereo not drawn)
  -8%	0%
[39] COc1ccc(OCC(=O)N2CCN(CC3CC4C=CC3C4)CC2)cc1 (stereo not drawn)
  ·	-7%
[40] CCCn1c(N2CCN(C(=O)N3CCCCC3)CC2)nc2ccccc21
  -17%	-14%
[41] CC(Oc1ccc(F)cc1)C(=O)Nc1sc2c(c1C(=O)NCc1cccnc1)CCCC2 (stereo not drawn)
  -25%	-22%
[42] CCOC(=O)N1CCc2c(sc3c2c(=O)n(-c2ccc(CC)cc2)c(=O)n3Cc2cccc(OC)c2)C1
  -5%	-15%
[43] Cc1cc(C(=O)OC2CCOC2=O)c2ccccc2n1 (stereo not drawn)
  -15%	-6%
[44] FC(F)(F)C(Oc1nc(Nc2ccc(Cl)cc2)nc(N2CCOCC2)n1)C(F)(F)F
  -14%[1.46 µM]	-23%
[45] O=C(c1ccc(F)cc1)C(CN1CCOCC1)c1ccccc1 (stereo not drawn)
  14µM*	13µM*
[46] CCOC(=O)c1cccc(NC(=O)CC2C(=O)N(c3ccc(F)cc3)C(=O)N2C(C)C)c1 (stereo not drawn)
  -2%	-9%
[47] CCCCCCN=CC1=C(O)C(C(=O)OC)C(C)(C)CC1=O (stereo not drawn)
  ·	-19%
[48] N#CC1=C(N)Oc2cc(N)ccc2C1c1ccc(Cl)cc1 (stereo not drawn)
  ?	-13%
[49] Cc1cnc(C(=O)NC(Cc2ccccc2)c2ccccc2)cn1 (stereo not drawn)
  i	-1%
[50] CCOc1cc(N2CCOCC2)c(OCC)cc1NC(=O)CN1CCc2ccccc2C1
  ·	?
[51] O=S(=O)(Nc1cccc(Oc2ccc(Cl)cc2)n1)c1ccc(F)cc1
  i	-12%
[52] O=C1/C(=C/c2cccs2)Cc2ccccc21
  -15%	-9%
[53] COc1ccccc1C(=O)N1CCN(S(=O)(=O)c2ccccc2)CC1
  ·	-6%
[54] O=C(Nc1cccc(Cl)c1)N1CCCCCC1
  -22%	-5%
[55] COc1cc2c(C(=O)O)c(C)n(CC(C)C)c2c2ccccc12
  ·	-2%
[56] COc1ccc(OC)c(NC(=O)CSc2nnc(-c3ccncc3)s2)c1
  -2%	-11%
[57] CCCCNC(=O)Cn1nnc(-c2ccccc2)c1COc1ccc(C(C)=O)cc1
  i	-30%
[58] COCCNC(=O)CSc1nc(-c2ccccc2C)nc2c1c(=O)n(C)c(=O)n2C
  7%	-2%
[59] CC(C)(C)CNC(=O)C1(C)CCN1C(=O)Cc1ccc(C(C)(C)C)cc1 (stereo not drawn)
  8%	-24%
[60] CCc1ccc2oc(-c3ccc(OC)cc3)cc(=Nc3cccc(C(=O)O)c3)c2c1
  ?	-17%

Later entries
Order of values – VACV mCherry inh	Vaccinia Venus
[61] C[N+](C)(C)CCCCCC[N+](C)(C)C
  -10%	-10%&-2%
[62] Cc1nn(-c2ccccc2)nc1-c1nnc(-c2ccc(C(F)(F)F)cc2)o1
  -14%	-1%
[63] O=[N+]([O-])c1ccccc1NC1CCN(Cc2ccccc2)CC1
  -22%	-3%
[64] Cc1cc(NC(=O)CN2CCN(C/C=C/c3ccccc3)CC2)c([N+](=O)[O-])cc1C
  -3%	-12%
[65] CCOC(=O)c1nn(-c2ccc3c(c2)OCO3)cc1O
  ·	-13%
[66] CS(=O)(=O)N1CCc2cc(C(=O)N3CCOCC3)ccc21
  ·	-14%
[67] CCN(CC)c1ccc(CNC23CN4CN(CN(C4)C2)C3)cc1
  -12%	-7%
[68] COc1ccc(OC(=O)/C=C/c2ccc([N+](=O)[O-])cc2)cc1
  i	1%
[69] CCOc1cc(C(=O)Nc2cc(C)ccc2C)ccc1OCC(=O)N1CCCCC1
  -24%	-19%
[70] Cc1ccc(-n2c(=O)c3sccc3n(CC(=O)NC3CCCC3)c2=O)cc1
  5%	14%
[71] CCOC(=O)c1ccc(S(=O)(=O)N2CCN(C)CC2)cc1
  -18%	-5%
[72] COc1ccc(NC(=O)CSCc2ccc(C)cc2)cc1
  i	-5%
[73] Oc1cccc(-c2nc3ncccn3c2Nc2cccc(C(F)(F)F)c2)c1
  ?	-25%
[74] CCCCNCC1CCCO1 (stereo not drawn)
  -4%	-4%
[75] Cc1c(NC(=O)COC(=O)CCc2c[nH]c3ccccc23)c(=O)n(-c2ccccc2)n1C
  i	-9%
[76] O=C(CCCCCCCC(=O)N1CCCC1)N1CCCC1
  -3%	2%
[77] CCN(CC(=O)Nc1c(F)cccc1F)C(=O)c1cccn1C
  i	-12%
[78] COc1ccc(-c2cc(=O)c3ccccc3s2)cc1
  -27%	-23%
[79] CCc1ccc(-n2nnnc2SCC(=O)NNC(=O)c2ccco2)cc1
  -2%	-9%
[80] COc1ccccc1N(CC(=O)Nc1ccc2c(c1)OCO2)S(=O)(=O)c1ccccc1
  -14%	-6%
[81] Cn1c(NC(=O)c2ccc(Cl)cc2)cc(=O)n(C)c1=O
  i	-6%
[82] COc1ccccc1Cn1cc(C(=O)c2ccccc2)c(=O)c2cc(OC)c(OC)cc21
  -15%	-10%
[83] CC(C)NC(=O)Cn1nc(C(F)(F)F)c2c1CCC2
  ?	-24%
[84] CCCN(c1nc(C)cc(OC)n1)S(=O)(=O)c1ccccc1
  -13%	-7%
[85] CC[C@H]1C(=O)[C@@H](Cc2ccccc2)[C@@H]2CCN3C(=O)CCC[C@H]1[C@H]23
  -12%	-4%&-12%
[86] CC(C)c1ccc(NC(=O)C2C3C=CC4(O3)C2C(=O)N(CCCN2CCOCC2)C4C(=O)NC2CCCCC2)cc1 (stereo not drawn)
  -3%	-5%
[87] C#Cc1cccc(Nc2nc(NC(C)C)nc3ccsc23)c1
  -22%	-27%
[88] COc1ccc(CNC(=O)CSc2ncc3c(n2)-c2cc(Cl)ccc2N(Cc2ccccc2)S3(=O)=O)cc1
  -22%	-17%
[89] CCCCNC(=O)C1CCN(C(=O)N2CC(C)Oc3ccc(Cl)cc32)CC1 (stereo not drawn)
  -5%	-7%
[90] CC(Nc1ccc(Br)cn1)c1cc(Cl)ccc1O (stereo not drawn)
  ?	?
[91] CCCOc1ccc2c3c(c(=O)oc2c1OCCC)CCCC3
  ·	?
[92] CCOC(=O)c1cnc2ccc(OCC)cc2c1NCc1ccccc1
  -14%	-28%
[93] O=C(COc1ccc(S(=O)(=O)NC2CCCCC2)cc1)NC1CCCCC1
  ·	?
[94] OCc1cccc[n+]1Cc1ccccc1
  -15%	-1%
[95] O=C(CNC(=O)c1cccc(F)c1)NC1CC1
  -15%	-5%
[96] Nc1ccc2c(c1)C(=NO)c1ccccc1-2
  ?	?
[97] CC(C)(C)c1ccc(S(=O)(=O)NCC(=O)Nc2ccc(-c3nc4ccccc4s3)cc2)cc1
  -20%	-19%
[98] O=C(O)C[C@H]1c2cc(F)ccc2S(=O)(=O)N1C1CCN(Cc2ccccc2)CC1
  i	0%
[99] Cc1ccc(S(=O)(=O)N/N=C(\c2ccccc2)C2CC2)cc1
  -23%	-13%
[100] C[C@]12CCC3C(CC[C@H]4C[C@@H](O)CC[C@]34C)C1C[C@@H](O)[C@H]2O (stereo partly drawn)
  -10%	3%
[101] CCn1cc(C(=O)Nc2ccc(OC)c(S(=O)(=O)N3CCCCC3)c2)c(=O)c2ccc(C)nc21
  -2%	-12%
[102] COc1cccc(C(=O)N/N=C(/c2ccccc2)c2ccccn2)c1
  2µM*	?
[103] COc1ccc(-c2nn(-c3ccccc3)cc2C(=O)Nc2nccs2)cc1
  ·	?
[104] O=C(NC1CCCCC1)C(c1ccnc2ccccc12)n1c(=O)c(-c2cc3ccccc3[nH]2)nc2ccccc21 (stereo not drawn)
  -20%	-20%
[105] CCOC(=O)c1cccc(NC(=O)CN2C(=O)CC(C)(C)Sc3ccccc32)c1
  -14%	-3%
[106] O=C(Cn1cnc([N+](=O)[O-])c1)Nc1ccccc1C(F)(F)F
  i	-6%
[107] CC(=O)Nc1ccc(OC(=O)Oc2ccc(NC(C)=O)cc2)cc1
  i	-1%
[108] CC(Oc1ccccc1)c1nnc(SCC(=O)NC2CC2)n1C (stereo not drawn)
  i	-10%
[109] CCCN1CNC(=S)N(c2ccc(C(=O)OCC)cc2)C1
  -22%	-8%
[110] Nc1c(Br)cc2c([nH]c(=O)c3ccccc32)c1Br
  i	-8%

Following part.
Order of values – VACV mCherry inh	Vaccinia Venus
[111] CC(C)OC(=O)c1c(NS(=O)(=O)c2ccccc2)sc2c1CCCC2
  i	-16%
[112] Cc1ccc(NC(=O)CSc2nc3c(c(=O)[nH]2)CN(Cc2ccc(F)cc2)CC3)cc1C
  i	-2%
[113] CCOC(=O)C/C(N)=N/N(C)c1ncc(C(F)(F)F)cc1Cl
  -10%	-9%
[114] N#Cc1ccccc1CCN1C(=O)c2ccccc2C1=O
  -2%	-14%
